Screens as filed in PubChem.
HNF4A DNA FP: change in binding of human HNF4A to DNA, primary screen, biochemical, fluorescence polarization, FITC-DNA. activity change, % at 10 µM. hit rate 0.3% among 360,000. Hepatocyte nuclear factor 4-alpha (Homo sapiens), P41235. 1 h; in the data active = activity change above about 30%, passing the limit was not always enough;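 also: controls were the assay level and a saturating level of protein; the project sought stronger binding though the title names inhibitors; some compounds called inactive have numbers as strong as hits; positive values seem to mean higher polarization but the record does not say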
Target sequence (P41235 whole entry, looked up): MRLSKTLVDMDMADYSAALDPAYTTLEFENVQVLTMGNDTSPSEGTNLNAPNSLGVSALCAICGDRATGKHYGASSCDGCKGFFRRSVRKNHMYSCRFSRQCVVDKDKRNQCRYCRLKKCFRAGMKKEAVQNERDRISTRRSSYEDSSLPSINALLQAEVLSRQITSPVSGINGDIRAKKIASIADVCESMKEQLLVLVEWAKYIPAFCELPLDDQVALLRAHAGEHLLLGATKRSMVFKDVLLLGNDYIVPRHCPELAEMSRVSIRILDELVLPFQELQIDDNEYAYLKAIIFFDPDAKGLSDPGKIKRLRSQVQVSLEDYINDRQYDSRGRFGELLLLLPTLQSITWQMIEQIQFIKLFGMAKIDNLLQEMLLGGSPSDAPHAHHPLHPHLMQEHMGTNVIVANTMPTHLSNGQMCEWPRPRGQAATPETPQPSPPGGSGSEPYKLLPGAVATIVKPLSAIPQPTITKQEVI
An asterisk follows results filed as active; & = joins results of further samples. Only part of the results is shown; count on the stated rates, not on these rows.

| compound | HNF4A DNA FP |
| --- | --- |
| COCCNC(=O)C1(C)CCCN(C(=O)c2ccc3c(c2)CCO3)C1 (stereo not given) | 1.3 |
| CN1CCC(N2CCN(C3CN(C4CCCC4)S(=O)(=O)C3)CC2)CC1 (stereo not given) | 2.6 |
| CCc1nc2c(OCC(=O)c3ccc(Cl)cc3Cl)cccn2c1N(C)C(=O)c1cccs1 | 6.7 |
| CC(C)Nc1ncnc2c1ncn2[C@H]1CN(Cc2cccs2)C[C@@H](CO)O1 | -0.1 |
| O=C(C[C@@H]1CC[C@H](NS(=O)(=O)c2ccccc2F)[C@@H](CO)O1)NCCCN1CCOCC1 | 3.4 |
| CC(C)C(N)c1csc(Nc2nncc3ccccc23)n1 (stereo not given) | 0.2 |
| CC(C)c1cc(C(=O)NCc2ccc(F)cc2)c(N)s1 | 6.0 |
| CCCCCCCCN1C(=O)[C@H](CC(=O)N2CCN(C(=O)OCC)CC2)C[C@@]2(C(=O)OCC)CCCC=C12 | 1.8 |
| Fc1cc(Cl)cc2ccc(-c3ccccc3)nc12 | -1.3 |
| CCOC(=O)C1(C)CCN1C(=O)c1oc2ccccc2c1C (stereo not given) | 1.1 |
| CCc1nc2ccc(C(=O)NCCCN3CCCC3=O)cn2c1N(C)Cc1ccc(OC)cc1 | -2.6 |
| CC1(Cc2ccccc2F)C(=O)Nc2c(Cl)ccc(Cl)c21 (stereo not given) | -1.9 |
| Cc1cc(Cl)ccc1C(O)c1ncc(-c2ccc(C(F)(F)F)cc2)[nH]1 (stereo not given) | 0.1 |
| CCc1cccc(CC)c1NC(=O)c1ccc(-c2cc(Cl)ccc2Cl)o1 | -2.9 |
| CN1CCN(c2ccc(CNC(=O)C3Cc4c(-c5ccc6c(c5)OCO6)ccnc4O3)cc2)CC1 (stereo not given) | 2.5 |
| O=C(NC1CCCC1)C(C1CC1)n1c(-c2ccnc3ccccc23)nc2ccccc21 (stereo not given) | 0.8 |
| CC(C)C[C@H]1CNC(=S)N1C[C@H]1CCCN1C[C@H](Cc1ccc(O)cc1)N1C[C@H](Cc2ccc(O)cc2)N(CC2CCCCC2)C1=S | -1.1 |
| CCOC(=O)[C@]12CCC=C1N(Cc1ccccc1)C(=O)[C@H](CC(=O)NCCCN1CCCC1=O)C2 | -1.5 |
| O=C(NCc1ccccc1)c1ccc(-c2ccc(F)c(F)c2)c2ccoc12 | 3.6 |
| C=CCNc1nc(NCc2ccc(NC(C)=O)cc2)c2sc(-c3ccccc3)cc2n1 | -2.8 |
| Cn1nc(C(C)(C)C)cc1C(=O)N1CCC(C)(C(=O)NS(=O)(=O)C2CC2)C1 (stereo not given) | -1.6 |
| CCCCOCCCNC(=O)C[C@@H]1C[C@@]2(C(=O)OCC)CCC=C2N(Cc2cccc3ccccc23)C1=O | -1.2 |
| COc1cc2c(cc1OC)CN1CCc3cc(OC)c(OC)cc3C1C2 (stereo not given) | 12 |
| COc1ccc(-c2coc3c(C(=O)NCc4cccc(Cl)c4)cccc23)c(C)c1 | 1.9 |
| COc1ccc(NC(=O)C2(C)Cc3c(-c4ccc(N(C)C)cc4)ccnc3O2)cn1 (stereo not given) | -0.1 |
| CC(=O)Nc1ccc(CN2C(=O)C(Cc3ccccc3)ON=C2c2cccc(F)c2)cc1 (stereo not given) | 1.6 |
| CC(=O)Nc1ccc(NC(=O)c2ccc3sc([C@H]4C[C@H](O)[C@@H](CO)O4)nc3c2)cc1 | -0.4 |
| FC(F)(F)c1ccccc1Cc1c(-c2ccccc2)nc2ccc(Cl)cn12 | 2.8 |
| COc1ccc(C(C)=O)cc1Cn1c(C)c(C(=O)NCc2ccc(C(F)(F)F)cc2)sc1=O | 0.4 |
| Cc1c(C(=O)NCc2ccc(C(F)(F)F)cc2)sc(=O)n1Cc1cccc(F)c1 | 0.0 |

Other structures.
| compound | HNF4A DNA FP |
| --- | --- |
| CC1(C(=O)NS(=O)(=O)c2cccc(F)c2)CCN1C(=O)c1cccc(F)c1 (stereo not given) | 2.7 |
| Cc1ccc(C(=O)N2CCC2(C)C(=O)NC(C)C)cc1 (stereo not given) | -2.4 |
| CCCCC(=O)N(C)c1c(CC)nc2c(OCCOC)cccn12 | 1.4 |
| Nc1[nH]c(C(=O)c2ccccc2)c(-c2ccccc2Br)c1C(=O)NCCc1ccc(Cl)cc1Cl | 2.1 |
| CCc1nc2ccc(C(=O)N3CCN(S(=O)(=O)CC)CC3)cn2c1N(C)C(=O)C1CCCCC1 | -4.0 |
| CC1(C(=O)Nc2cnc3ccccc3c2)CCN1C(=O)c1ccccc1CCc1ccccc1 (stereo not given) | -0.8 |
| O=S1(=O)CC(N2CCCC2)CN1Cc1cn(Cc2ccc(Cl)cc2)nn1 (stereo not given) | 5.3 |
| COC(=O)[C@]12CCCCC=C1N(Cc1ccc(Cl)cc1Cl)C(=O)[C@H](CC(=O)N1CCCC1)C2 | -3.1 |
| O=C1OC(c2ccc(F)cc2)CC1CN1CCOCC1 (stereo not given) | 2.6 |
| CCOC(=O)[C@]12CCC=C1N(CCC1=CCCCC1)C(=O)[C@H](CC(=O)N1CCCC1)C2 | 3.9 |
| O=C1c2ccccc2C(c2nnnn2-c2ccc3c(c2)OCCO3)N1Cc1cccc(F)c1 (stereo not given) | 0.4&3.3 |
| N#Cc1cccc(C=C(C(=O)c2ccccc2)c2ccccc2)c1 | -0.7 |
| Cc1cc2oc(=O)cc(CN3CCN(c4ccccc4)CC3)c2cc1Cl | -2.6 |
| NC(=O)c1cccc(-c2coc3c(C(=O)NCCc4ccccc4)cccc23)c1 | 3.1 |
| CC(C)(C)n1nnnc1C(c1cc2ccccc2o1)N1CCN(C(=O)OCc2ccccc2)CC1 (stereo not given) | -1.7 |
| CCCCC[C@@H]1C=C(C(=O)OCC)[C@H](c2ccccc2)N1S(=O)(=O)c1ccc(C)cc1 | 0.3 |
| O=c1cc(CN(Cc2ccccc2)Cc2ccccc2)c2c(ccc3ccccc32)o1 | 0.1 |
| COc1ccc(C(=O)NC[C@H]2O[C@@H](n3cnc4c(N)ncnc43)[C@H](O)[C@@H]2O)cc1OC | 5.2 |
| CC1(C(=O)NS(=O)(=O)Cc2ccccc2)CCN1C(=O)Cc1ccccc1 (stereo not given) | -4.1 |
| CC1(C(=O)Nc2cccc(NS(C)(=O)=O)c2)CCN1Cc1ccccc1OC(F)F (stereo not given) | 0.1 |
| CCCCNC(=O)C[C@@H]1C[C@@]2(C(=O)OCC)CCC=C2N(Cc2ccccc2)C1=O | 1.0 |
| CC(=O)Nc1ccc(CN(C)c2c(C)nc3ccc(C(=O)NCCCN4CCCC4=O)cn23)cc1 | 0.2 |
| C[C@@H]1CN([C@@H](C)CO)C(=O)CCCn2nncc2CO[C@H]1CN(C)Cc1ccc(Cl)c(Cl)c1 | -5.7 |
| O=C(N[C@H](CO)Cc1ccccc1)[C@H]1O[C@@H](n2ccc(=O)[nH]c2=O)[C@H](O)[C@@H]1O | 1.3 |
| Cc1cc(C)cc(C(O)c2ncc(-c3ccc4ccccc4c3)[nH]2)c1 (stereo not given) | 3.0 |
| CCCCCC(=O)N1C[C@H](O)[C@@H](n2cc(C3CC3)nn2)C[C@@H]1c1ccc(OC)cc1 | -0.8 |
| CCCCOCCCNC(=O)C[C@@H]1C[C@@]2(C(=O)OCC)CCC=C2N(Cc2ccccc2)C1=O | -2.5 |
| CCc1nc2ccc(C(=O)NCc3ccc(OC)cc3)cn2c1N(C)C(=O)Cc1ccccc1 | -2.2 |
| COc1ccccc1S(=O)(=O)N[C@@H]1CC[C@@H](CCn2cc(C3CC3)nn2)O[C@@H]1CO | -2.7 |
| CC1=C(C(=O)N(C)C)CC(CC(=O)NCCCCc2ccccc2)C(=O)N1Cc1ccc(F)cc1 (stereo not given) | 1.1 |

(further entries)
molecule	HNF4A DNA FP
CCNC(=O)C1(C)CCN(C(=O)c2ccc(F)c(Cl)c2)C1 (stereo not given)	0.2
COC(=O)c1ccc2nc(-c3ccc(C)cc3)c(Cc3ccc(OC)cc3C)n2c1	19
CCCNC(=O)C1(C)CCCN(C(=O)C2(c3ccc(Cl)cc3)CCCC2)C1 (stereo not given)	2.0
CCN(CC)C(=O)C1=C(C)N(CCCOC)C(=O)C(CC(=O)NC2CC2)C1 (stereo not given)	2.0
CC1(C(=O)NS(=O)(=O)c2ccccc2Cl)CCN1C(=O)c1ccccc1CCc1ccccc1 (stereo not given)	-3.6
O=C1c2ccccc2C(c2nnnn2Cc2ccccc2)N1Cc1cccs1 (stereo not given)	-0.3&11
O=C(c1ccc(-c2ccccc2)cc1)N1CCC2CC1c1cc(-c3ccc4c(c3)OCO4)ccc12 (stereo not given)	-1.5
CCc1nc2c(OCc3ccccc3)cccn2c1N(C)C(=O)Nc1ccccc1OC	1.1
COCCCNC(=O)c1ccc2sc(C3=C[C@@H](O)[C@@H](O)[C@@H](CO)O3)nc2c1	-7.5
CCOC(=O)CC1(C)Sc2ccccc2N1S(=O)(=O)c1ccc(C)cc1 (stereo not given)	2.0
CCCCc1c(-c2ccccc2OC)ncn1Cc1ccc(Cl)cc1	0.9
CCc1nc2ccc(C(=O)Nc3cc(-c4ccccc4)ccc3OC)cn2c1N(C)Cc1ccc(Cl)cc1	3.9

Later entries:
molecule	HNF4A DNA FP
COc1ccc(-c2ccc(C(=O)Nc3ccc(NC(C)=O)cc3)c3occc23)c(C)c1	1.6
CC(=O)N1Cc2cc(C(=O)NCC(F)(F)F)nc(-c3cccc(-c4cc5ccccc5o4)c3)c2[C@H]1CCO	0.3
CC(C)Oc1ccc(F)cc1-c1cc(C(=O)NCc2cc(C(F)(F)F)cc(C(F)(F)F)c2)[nH]n1	2.8
CC1(C(=O)Nc2ccccc2F)CCN1C(=O)Cc1cc(F)ccc1F (stereo not given)	2.9
Cc1ccc(Cc2c(-c3ccc(F)cc3)nc3c(Cl)cc(C(F)(F)F)cn23)cc1	3.2
CC(C)CNC(=O)c1[nH]c(C(F)(F)F)nc1-c1ccccc1	-3.0
Cc1cnc(CNC(=O)c2csc([C@H]3C[C@H](O)[C@@H](CO)O3)n2)cn1	-2.9
C[C@@H](c1ccccc1)N1C[C@@H](COCc2ccccc2)Oc2cc(N3CCC[C@H]3C(N)=O)ccc2S1(=O)=O	-1.7
CC(C)(C)S(=O)N1Cc2cc(C(=O)NCCCN3CCOCC3)nc(-c3cccc(-c4cc5ccccc5o4)c3)c2[C@H]1CCO (stereo not given in full)	1.8
O=C(Nc1cccc2cccnc12)c1csc(COCCO)n1	-1.6
CC(C)C1C(=O)N(Cc2cn(CCC3OCCCO3)nn2)CCS(=O)(=O)N1Cc1ccc(-c2ccc(Cl)cc2)cc1 (stereo not given)	2.6
COc1ccc(-c2csc(C(C)(O)c3cccc(OC)c3)n2)cc1 (stereo not given)	26

(continued)
molecule	HNF4A DNA FP
Cc1cc(C)c2c(CN(Cc3ccccc3)Cc3ccccc3)cc(=O)oc2c1	1.8
C[C@@H]1CN([C@H](C)CO)C(=O)c2c(c3ccccc3n2C)-c2ccccc2CO[C@H]1CN(C)Cc1ccc(C(F)(F)F)cc1	3.3
Clc1cccc(Cc2c(-c3ccco3)nc3ccc(Cl)cn23)c1	7.0
Cc1cc(C)c(C(=O)c2ccccc2C(=O)O)c(C)c1	3.5
COC(=O)C[C@H]1CC[C@H](NC(=O)Cc2ccccc2)[C@@H](CO)O1	-3.3
CC1(Cc2ccccc2OC(F)(F)F)C(=O)Nc2ccc(S(=O)(=O)NC3CCCCC3)cc21 (stereo not given)	-1.3
O=C(OCc1ccccc1)N1CCC2CC1c1ccc(/C=C/CCCCl)cc12 (stereo not given)	4.1
CCN(CC(=O)Nc1cc(Cl)ccc1C)C(=O)C1CCN(c2ncnc3sc(C)c(C)c23)CC1	-0.6
O=C(Nc1ccc(Cl)c(C(F)(F)F)c1)C1Cc2c(-c3ccccc3Oc3ccccc3)ccnc2O1 (stereo not given)	0.8
CCCS(=O)(=O)NC(=O)C1(C)CCN(C(=O)c2cc(F)cc(F)c2)C1 (stereo not given)	1.2
CC1(C(=O)Nc2cccc(Oc3ccccc3)c2)CCN1C1Cc2ccccc2C1 (stereo not given)	0.8
O=C(c1ccncc1)N(c1ccc(N2CCOCC2)cc1)C(c1ccccc1)c1nc2ccccc2[nH]1 (stereo not given)	-3.6

The listing continues.
molecule	HNF4A DNA FP
CC(=O)c1cccc2c1OC(C)C(=O)N2Cc1ccc(Cl)cc1 (stereo not given)	1.5
CNC[C@H]1Oc2cc(Br)ccc2S(=O)(=O)N([C@@H](C)CO)C[C@H]1C	1.7
O=C1NC(Cc2ccccc2)c2nc3cc(F)ccc3c(=O)n2-c2cc3ccccc3cc21 (stereo not given)	-3.2
CCCCc1c(-c2ccccc2)ncn1CCc1ccccc1OC	3.8
OCCN1CCN(c2ncnc3c2ncn3[C@H]2CN(Cc3ccncc3)C[C@@H](CO)O2)CC1	-5.0
O=C(Nc1c(-c2ccccc2)[nH][nH]c1=O)c1ccc2c(c1)OCO2	4.5
CNc1cncc(-c2ccc(C)cc2)n1	0.2
CC1(C(=O)NS(=O)(=O)C2CC2)CCN(C(=O)c2ccc(F)cc2Cl)C1 (stereo not given)	-1.5
Cc1ccc(C)c(C(O)c2ncc(-c3cccc(C(F)(F)F)c3)[nH]2)c1 (stereo not given)	0.2
CC1(C(=O)NCc2cccc3ccccc23)CCN1C(=O)Cc1ccc(-c2ccccc2)cc1 (stereo not given)	1.5
O=c1[nH]c2ccccc2nc1-c1nnnn1C1CCCC1	-0.8
CCNC(=O)C1(C)CCCN(C(=O)c2ccnc(Cl)c2)C1 (stereo not given)	-0.1
